RecA splice inh: Mtb RecA intein splicing inhibitors, primary screen, biochemical, fluorescence, HTS; Protein RecA (Mycobacterium tuberculosis (strain ATCC 25618 / H37Rv)), P9WHJ3; cell-free RecA intein splicing; inhibition, %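 (about 9 µM by stock and volumes)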; actives 0.75% (n = 290,000); in the data active = inhibition above about 30%; inconclusive = no clear call, values can overlap the other calls;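 note: 0% = vehicle wells and 100% = reference inhibitor control wells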
Target sequence (P9WHJ3 whole entry, looked up, canonical isoform): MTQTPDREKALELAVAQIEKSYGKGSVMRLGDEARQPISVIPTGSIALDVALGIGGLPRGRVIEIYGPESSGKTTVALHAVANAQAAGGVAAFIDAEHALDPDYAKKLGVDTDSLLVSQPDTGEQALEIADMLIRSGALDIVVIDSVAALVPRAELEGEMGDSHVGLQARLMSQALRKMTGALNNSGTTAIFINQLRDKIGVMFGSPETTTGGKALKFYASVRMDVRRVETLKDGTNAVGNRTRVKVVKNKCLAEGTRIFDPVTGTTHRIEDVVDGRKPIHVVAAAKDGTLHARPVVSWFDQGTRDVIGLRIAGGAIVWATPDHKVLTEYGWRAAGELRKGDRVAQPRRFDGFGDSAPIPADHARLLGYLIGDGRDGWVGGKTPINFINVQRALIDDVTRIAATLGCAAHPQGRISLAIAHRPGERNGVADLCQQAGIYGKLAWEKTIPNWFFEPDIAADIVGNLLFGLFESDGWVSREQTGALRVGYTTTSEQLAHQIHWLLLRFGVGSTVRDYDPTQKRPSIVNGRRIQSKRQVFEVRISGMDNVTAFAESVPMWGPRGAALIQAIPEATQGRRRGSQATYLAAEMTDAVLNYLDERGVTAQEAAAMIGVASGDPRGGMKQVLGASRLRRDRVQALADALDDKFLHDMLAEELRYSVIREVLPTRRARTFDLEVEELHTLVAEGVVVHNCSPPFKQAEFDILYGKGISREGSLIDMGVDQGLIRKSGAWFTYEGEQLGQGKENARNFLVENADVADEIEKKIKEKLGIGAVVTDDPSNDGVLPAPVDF
Mtb bLac sens: beta-lactam sensitization of Mtb H37Rv, H37Rv; M. tuberculosis H37Rv growth with meropenem, percent inhibition; hits of this screen are not shown here; inhibition, % at 25 µM; actives 0.27% (n = 330,000); AID 434955, 2010;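 active = about 74% or more and at least 40 points above the plate without the antibiotic, then above 30% in a dose series; inconclusive = first-round hits that could not be retested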;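 note: growth measured after seven days incubation then overnight dye step; 0% = bacteria only wells and 100% = bacteria with antibiotic; twin plates without the antibiotic show which effects depend on it; some results filed as inactive read as strong as hits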
Arbovirus anti: antivirals against arbovirus infection, primary screen, cell-based, full library, 10K replicate subset. arbovirus infection cell-based antiviral screen. inhibition, % at 10 µM. actives 0.37% (n = 200,000). AID 1251, 2008;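 active = inhibition from about 30%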;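 note: bluetongue infection of BSR cells; cell survival read as ATP light after 72 h; 0% = infected wells without compound and 100% = uninfected wells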
YopH PTP inh: YopH tyrosine phosphatase inhibitors, primary screen, biochemical, fluorescence Ex485/Em525; YopH tyrosine phosphatase [Yersinia enterocolitica]; inhibition, %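 (about 10 µM by stock and volumes)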; actives 0.16% (n = 140,000);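 active = inhibition of 50% or more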;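 note: controls were vehicle for no effect and minimum signal wells for full effect; inactives centre near -20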
Mtb H37Rv: M. tuberculosis H37Rv growth inhibitors, H37Rv strain (AID 1626). M. tuberculosis H37Rv growth inhibition; higher % means a stronger effect. actives 0.95% (n = 220,000). one-dose inhibition, % at 10 µM; IC50 in µM for titrated hits;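 active = confirmed in a dose series; inconclusive = inhibition above 80% but not taken into the dose series; inactive = below 80% or under 30% at every dose of the series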;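 note: bacteria incubated seven days before Alamar blue readout; 0% = bacteria only wells and 100% = bacteria with antibiotic wells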
Arbovirus anti repeat: further read-out of Arbovirus anti, marked with its call; inhibition, %; measured here: 10K subset replicate screen; many hits read low in the repeat;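 first of two repeat runs on a subset; 0% = infected and 100% = uninfected wells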
* = called active by the depositor; ? = inconclusive; . = no result given.

SMILES | RecA splice inh | Mtb bLac sens | Arbovirus anti | YopH PTP inh | Mtb H37Rv | others
CCNCCNC(=O)c1c(O)c2cccc3c2n(c1=O)CCC3 | 2.0 | 22 | -1 | -24 | 2% | Arbovirus anti repeat=-1
Cc1cccc2nc(CSC(=N)N)c(Br)n12 | -2.4 | 4 | -13 | -33 | -1%
COc1ccc(OCC(=O)Nc2ccccc2OC(F)F)cc1 | 0.0 | 43 | -9 | -30 | 14%
CCCS(=O)(=O)N1CCCC(C(=O)NCCc2ccccc2)C1 (stereo not drawn) | -2.7 | -5 | . | . | .
CC1(C)CC(=O)C=C(NCc2cccs2)C1 | -2.6 | 3 | -1 | -21 | 6%
CCCOC(=O)c1ccc(-n2nnnc2SCC(=O)N2CCCCC2)cc1 | 1.1 | -3 | 4 | -48 | -1% | Arbovirus anti repeat=5
COc1ccc(NC(=O)c2ccc(CN3CCc4ccccc4C3)cc2)c(OC)c1 | -0.7 | 49 | . | . | .
O=C(O)CCc1ccc(-c2ccc(F)cc2)n1Cc1ccco1 | 3.5 | 0 | 1 | -20 | 0%
CC1=C(C(=O)OC2CCCC2)C(c2coc3ccc(C)cc3c2=O)C2=C(CCCC2=O)N1 (stereo not drawn) | -0.3 | 16 | 4 | . | 9%
CC(C)(C)C1CCC(C(=O)Nc2cccnc2)CC1 (stereo not drawn) | 1.6 | 7 | 8 | . | 8%
CCOC(=O)N1CCC(NC(=O)C2CCN(c3ccc(N4CCOCC4)nn3)CC2)CC1 | -5.6 | 7 | 2 | -25 | -15%
COc1ccc(C(=O)NC(=S)Nc2ccc(Cl)cn2)cc1OC | 1.4 | 5 | 6 | . | -4%
CCCCOC(=O)c1ccc(Nc2ccc([N+](=O)[O-])cn2)cc1 | -2.2 | 32 | -4 | -26 | 52%
Cc1cc(=O)oc2c3c(cc(OCC(=O)NCc4ccco4)c12)OC(C)(C)CC3 | 0.6 | -4 | . | . | .
CCN(CC)S(=O)(=O)c1c(Br)cc(C)cc1Br | 1.3 | 79 | -11 | -16 | 6%
Cc1nc(C(=O)Nc2ccccc2Cl)cc2c1[nH]c1ccccc12 | 1.8 | -2 | -4 | -6 | -6%
CCS(=O)(=O)Nc1ccc(NC(C)=O)cc1 | 1.3 | -1 | 8 | -26 | -1%
C/C(CC(=O)Nc1ccccn1)=N\NC(=O)c1cnccn1 | 0.5 | 0 | . | . | 7%
O=C(NCc1ccco1)c1cc2n(n1)C(C(F)(F)F)CC(c1ccc(Cl)c(Cl)c1)N2 (stereo not drawn) | -2.6 | 12 | 4 | -21 | >100µM*
CCOC(=O)Cc1nnc(Nc2ccc(C(=O)NC)cc2)c2ccccc12 | -0.6 | 1 | . | . | -8%
O=C(OCc1nc2ccsc2c(=O)[nH]1)c1ccco1 | 1.3 | -13 | . | . | .
CCN(CC)C(=O)CSc1nc2ccccc2c(=O)n1-c1cccc(OC)c1 | 0.4 | -4 | -4 | -38 | -8%
O=C(O)c1ccc(N2C(=O)CC(N3CCN(c4cccc(C(F)(F)F)c4)CC3)C2=O)cc1 (stereo not drawn) | 0.3 | -5 | . | . | .
COc1ccc(CC(=O)OCC(=O)Nc2ccc3c(c2)OCCO3)cc1OC | -3.4 | -7 | -4 | -14 | -2%
Cn1c(-c2ccc(Cl)cc2)cnc1NCc1cc2c(cc1[N+](=O)[O-])OCO2 | -0.5 | 79 | -3 | -6 | 7%
SMILES | RecA splice inh | Mtb bLac sens | Arbovirus anti | YopH PTP inh | Mtb H37Rv | others
COc1cc2c(cc1OC)C(C)N(C(=O)c1cc(Cl)nc(Cl)c1)CC2 (stereo not drawn) | -1.0 | 4 | . | . | .
CC(=O)N1c2ccc(S(=O)(=O)NCc3ccccc3Cl)cc2CC1C (stereo not drawn) | -0.1 | 5 | . | . | .
CCOC(=O)C(C)(C)Sc1nc2c(cnn2-c2ccc(C)cc2)c(=O)[nH]1 | 0.9 | -1 | 11 | -5 | 2%
S=C(NCCN(C1CCCCC1)C1CCCC1)Nc1cccc(Cl)c1 | 0.7 | 13 | . | . | .
CCOC(=O)c1c(N)n[nH]c1-c1ccccc1 | 0.3 | -2 | 6 | 5 | 1%
COc1cc(C(=O)NC2CCCc3ccccc32)cc(OC)c1C (stereo not drawn) | 0.7 | -6 | . | . | .
Cc1ccc(/C=N/N2CCN(C3c4ccccc4-c4ccccc43)CC2)o1 | 10 | 4 | . | . | -2%
Cc1cc(C)nc(N/N=C/c2ccccc2OCc2ccc(Br)cc2)n1 | 1.0 | 6 | -19 | -11 | 7%
Cc1ccc2nc3c(cc2c1)c(NS(=O)(=O)c1ccccc1)nn3CC(C)C | -3.5 | -1 | -14 | 2 | .
O=[N+]([O-])/C(C(Cl)=C(Cl)Cl)=C(/Sc1ccccc1)N1CCCCC1 | 34* | 3 | . | . | -7%
Cc1nccn1CCC(=O)O | -1.8 | 3 | 5 | -19 | -9%
C=CCOC(=O)C1=C(C)Nc2[nH]c(=O)[nH]c(=O)c2C1c1ccccc1 (stereo not drawn) | 4.7 | 0 | 18 | . | 6%
Cc1[nH]c(C)c2c(=O)n(-c3ccccc3)ncc12 | 0.0 | -1 | 0 | -22 | 4% | Arbovirus anti repeat=7
C=CCN(CC=C)CCOc1ccc2ccccc2c1 | 4.2 | 6 | 8 | . | 6%
O=C1CS/C(=C/C(=O)c2ccccc2)N1 | 0.2 | -4 | 0 | -1 | -3%
Cc1cc(NC(=O)CSc2nc(-c3ccccc3)c(C#N)c(=O)[nH]2)no1 | 1.3 | 0 | 16 | -37 | -6%
CCOC(=O)c1cnc2c(OC)cccc2c1N1CCN(c2ccccc2OC)CC1 | 12 | -6 | -2 | -10 | 3%
CCOC(=O)N1CCC(NC(=O)c2cc(S(=O)(=O)NCCc3ccccc3)ccc2F)CC1 | 3.9 | -4 | 1 | -25 | -6%
COc1ccc(-c2cc(C(=O)NC3CCCC3)c3ccccc3n2)cc1OC | -1.7 | 15 | . | . | .
COc1cc(NC(=O)Cn2nc(C(F)(F)F)c(Br)c2C)cc([N+](=O)[O-])c1 | -3.2 | -1 | 14 | -27 | 21%
Cc1cc(C(=O)Nc2ccc(N3CCOCC3)c3nonc23)ccc1[N+](=O)[O-] | -0.9 | 4 | . | . | .
O=C(Nc1ccc([N+](=O)[O-])cc1Br)c1cc2ccccc2nc1Cl | 1.3 | 5 | . | . | .
Cc1cc(Cl)c(S(=O)(=O)Nc2cccc(O)c2)cc1OCC(N)=O | -3.8 | -6 | -3 | -17 | 1%
CCCN(Cc1nnc(-c2ccccc2Cl)o1)C(=O)c1cc2ccccc2o1 | 8.2 | 3 | . | . | .
CCn1c(=O)c(C(=O)NCCCO)c(O)c2ccccc21 | -1.1 | -1 | 14 | -25 | 8%

Molecules shown so far that contain bromine, in the order listed:
SMILES | RecA splice inh | Mtb bLac sens | Arbovirus anti | YopH PTP inh | Mtb H37Rv | others
Cc1cccc2nc(CSC(=N)N)c(Br)n12 | -2.4 | 4 | -13 | -33 | -1%
CCN(CC)S(=O)(=O)c1c(Br)cc(C)cc1Br | 1.3 | 79 | -11 | -16 | 6%
Cc1cc(C)nc(N/N=C/c2ccccc2OCc2ccc(Br)cc2)n1 | 1.0 | 6 | -19 | -11 | 7%
COc1cc(NC(=O)Cn2nc(C(F)(F)F)c(Br)c2C)cc([N+](=O)[O-])c1 | -3.2 | -1 | 14 | -27 | 21%
O=C(Nc1ccc([N+](=O)[O-])cc1Br)c1cc2ccccc2nc1Cl | 1.3 | 5 | . | . | .

(further entries)
SMILES | RecA splice inh | Mtb bLac sens | Arbovirus anti | YopH PTP inh | Mtb H37Rv | others
O=C(CCc1ccccc1)Nc1cccnc1Cl | -0.6 | -4 | . | . | -13%
Cc1ccc(C)c(N2CCN(C(=O)c3nn(C)c4c3CS(=O)(=O)c3ccccc3-4)CC2)c1 | 7.6 | 12 | . | . | .
CN(C)/C=N/c1ncn(-c2ncc(C(F)(F)F)cc2Cl)n1 | 6.7 | -7 | 5 | . | 2%
Nc1nc2ccc(Cc3ccncc3)cc2s1 | -1.4 | 1 | . | . | .
O=C(CSc1nc2ccccc2c(=O)n1Cc1ccco1)N1CCN(c2ccccc2)CC1 | 0.4 | 0 | 6 | -5 | -1%
CC1(C)CC(O)CC(C)(C)N1CC(O)COCc1ccccc1 (stereo not drawn) | -5.3 | 2 | . | . | .
O=C(Cc1ccccc1)Nc1nnc(-c2ccco2)s1 | . | -9 | -7 | -15 | 0%
COc1ccc(S(=O)(=O)N2CCOCC2)cc1NC(=O)c1ccccc1-c1ccc(C(F)(F)F)cc1 | -2.4 | 60 | -4 | -6 | 3%
COc1ccc(NC(=S)NCC2CCN(c3ccc(OC)cc3)C2)cc1 (stereo not drawn) | 2.7 | 49 | -6 | -21 | ?
CCc1ccc2c(c1)C(c1ccc(N3CCOCC3)cc1)=NNC(c1ccncc1)=N2 | -3.1 | 34 | 10 | . | 17%
CN1CCc2c(sc3nc(NN)n(Cc4ccccc4)c(=O)c23)C1 | 0.5 | 8 | . | . | -5%
CCOC(=O)c1c(C)[nH]c(-c2csc(C)n2)c1C | 1.7 | -2 | 19 | . | -6%
O=C(CNC(=S)N(Cc1ccccc1)Cc1ccccc1F)NCCc1ccccc1 | 9.5 | 9 | -27 | . | 1%
Cc1cc(N/N=C/c2ccccc2)nc(N)n1 | -4.3 | -4 | . | . | -2%
O=C(OCc1cc(=O)n2c(n1)sc1ccccc12)c1cccc(O)c1 | 3.5 | 2 | 8 | -25 | 43%
CCn1ccc(C(=O)NC2=C(C#N)CCC2)n1 | 8.0 | -4 | 8 | -29 | 1%
CC(C)(C)c1cc(NS(=O)(=O)c2ccc3c(c2)OCCO3)on1 | . | -10 | 5 | 6 | -7%
CCC(NC(=O)c1ccccc1NC(=O)c1ccccc1)C(=O)O (stereo not drawn) | -1.8 | -1 | -4 | -46 | -4%
CC(C)CCc1c(O)nc(SCC(=O)N2CCCCCC2)[nH]c1=O | -0.4 | 7 | . | . | .
COc1ccc(NS(=O)(=O)c2ccc(C)c(NC(=O)NC3CCCCC3)c2)cc1 | 3.9 | -4 | 14 | -24 | -2%
CC(=O)Nc1cccc(C(=O)NC2CCCc3c2cnn3-c2cc(C)cc(C)c2)c1 (stereo not drawn) | 13 | ? | . | . | .
CC1=CC(C)(C)N2C(=O)C3(NCCc4c3[nH]c3ccccc43)c3cccc1c32 (stereo not drawn) | 4.4 | 13 | -13 | . | -10%
Cc1ccc(N=Nc2ccc(N)cc2C)c(S(N)(=O)=O)c1 | -0.1 | 0 | . | . | -9%
CCCSc1cc(N)cc([N+](=O)[O-])c1 | 0.9 | 57 | 1 | . | 4%
COc1ccccc1NC(=O)Cn1c(=O)oc2ccccc21 | 3.1 | 1 | 1 | 8 | 0%
SMILES | RecA splice inh | Mtb bLac sens | Arbovirus anti | YopH PTP inh | Mtb H37Rv | others
COc1cc(NC(=O)CN2C(=O)NC(c3ccccc3)(c3ccccc3)C2=O)c(C)cc1[N+](=O)[O-] | 6.7 | 14 | -11 | 8 | 15%
CCOC(=O)c1c(NC(=O)C2CCCO2)sc(C(N)=O)c1C (stereo not drawn) | 0.5 | 0 | -10 | -4 | 4%
CC(=NCCc1ccccc1)C1=C(O)CCC1=O | 0.9 | 4 | 5 | -1 | -1%
Cc1ccc(-c2csc(NC(=O)C3=COCCO3)n2)cc1 | 0.2 | 2 | 14 | -8 | 5%
COc1ccccc1CN1CC(C(=O)NCCN2CCNC2=O)CCC1=O (stereo not drawn) | -0.9 | -2 | . | . | .
O=C(O)c1cccc(S(=O)(=O)N2CCc3ccccc3C2)c1 | -1.7 | 3 | . | . | .
Cc1[nH]c2ccccc2c1C1C(c2ccccc2)=NN=C(C(C)C)N1O (stereo not drawn) | 5.9 | -3 | -7 | 0 | -7%
CC1(C)Cc2c(C#N)c(SCc3ccccc3)nc(N3CCOCC3)c2CO1 | 6.9 | . | -3 | -35 | 22%
CC(=O)c1cccc(NC(=O)N2C3CCC2CC(O)(c2cccnc2)C3)c1 (stereo not drawn) | 0.6 | -3 | 2 | -8 | -3%
CC(C)N(C)Cc1nnnn1CC(=O)N(C)Cc1cccc(Cl)c1 | 0.8 | 4 | . | . | .
COc1ccc2c(CCNC(=O)CN3C(=O)c4ccccc4C3=O)c[nH]c2c1 | 19 | -1 | 7 | 2 | 2%
CCOC(=O)c1c(N)sc(C(=O)OCCOC)c1C | -3.1 | 1 | -2 | . | -2%
CCCc1cc(Nc2c(C)n(C)n(-c3ccccc3)c2=O)n2c(nc3ccccc32)c1C#N | -10 | -4 | 2 | -15 | -2%
COc1ccc(NC(=O)N(Cc2ccc(C)cc2)Cc2cccnc2)c(OC)c1 | 2.7 | -8 | -5 | -7 | 1%
COc1ccc(NC(=S)NC(=O)c2csnn2)cc1 | -0.9 | -6 | -1 | . | 2%

A portion of the library (hit frequency here may not be typical).
